# From PubChem
# A1 apoptosis 2 = A1 inhibitors via caspase activation, primary screen, cell-based, luminescence, HTS, two replicates; caspase activation, % (concentration not given with the values); 24,000 tested, under 10 active; MEF A1-2A-BIM cells, caspase-Glo luminescence, 3 h; percent of clofoctol response, DMSO zero; in the data active = caspase activation above about 5.9%;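 also: wells of about 30 µL received 50 nL stock; the first replicate is given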
#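 Evaluation: Caspase-3/7 activity from luminescence increase | Assay system: A1-2A-BIM mouse embryonic fibroblasts | Quantity: 2500 MEF cells/well | Medium: RPMI-1640 plus 10% FBS | Detection: Caspase-Glo 3/7 luminescence, 1 h at room temperature | Dosing: 50 nL compound per well, pinned | Timing: Cells settled overnight, compound exposure 3 h at 37 °C, 5% CO2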
# The depositor's hits bear a star. Only part of the results is shown (hit frequency here may not be typical).
SMILES,A1 apoptosis 2
C[C@H]1CN([C@@H](C)CO)C(=O)c2cc(NC(=O)CCN3CCOCC3)ccc2O[C@H]1CN(C)C,2.1
CC(C)NC(=O)N(C)C[C@@H]1OCCCC[C@@H](C)Oc2ccc(NC(=O)C3CCCCC3)cc2C(=O)N([C@@H](C)CO)C[C@@H]1C,-0.1
C[C@H]1CCCCO[C@@H](CN(C)Cc2ccncc2)[C@@H](C)CN([C@@H](C)CO)C(=O)c2cc(NS(=O)(=O)c3cn(C)cn3)ccc2O1,0.9
C[C@@H]1CN([C@@H](C)CO)C(=O)c2cc(NC(=O)Nc3ccccc3)ccc2O[C@@H](C)CCCCO[C@@H]1CN(C)Cc1ccccc1,-0.7
C[C@@H]1CN([C@@H](C)CO)C(=O)CCCn2cc(nn2)CO[C@H]1CN(C)C(=O)Nc1ccccc1F,-0.1
C[C@H](CO)N1C[C@H](C)[C@H](CN(C)CC2CCCCC2)OCCCC[C@H](C)Oc2ccc(NS(=O)(=O)c3ccc(Cl)cc3)cc2C1=O,-1.2
C[C@H]1CN([C@@H](C)CO)C(=O)c2cccc(NC(=O)Nc3ccc(C(F)(F)F)cc3)c2O[C@@H]1CN(C)Cc1ccc(Cl)c(Cl)c1,-0.2
Cc1noc(C)c1S(=O)(=O)N(C)C[C@@H]1Oc2ccc(N(C)C)cc2CC(=O)N([C@@H](C)CO)C[C@@H]1C,0.0
C[C@@H]1CN([C@H](C)CO)C(=O)Cc2cc(NC(=O)Nc3ccc4c(c3)OCO4)ccc2O[C@H]1CN(C)Cc1ccc(Oc2ccccc2)cc1,-0.7
COC(=O)CCCCCCC(=O)N/N=C/c1ccc2ccccc2c1,-3.5
CNC[C@@H]1Oc2ccc(NC(=O)Cc3ccccc3)cc2C(=O)N([C@@H](C)CO)C[C@@H]1C,-1.0
CC(C)NC(=O)N(C)C[C@@H]1Oc2c(NS(=O)(=O)c3cccs3)cccc2C(=O)N([C@H](C)CO)C[C@@H]1C,-0.4
O=C(CCCCCCC(=O)Nc1ccccc1O)N/N=C/C1=CCCCC1,-2.3
CNC[C@H]1Oc2ccc(NC(=O)Cc3cn(C)c4ccccc34)cc2CC(=O)N([C@@H](C)CO)C[C@@H]1C,-0.6
C[C@@H]1CN([C@@H](C)CO)C(=O)c2cc(NC(=O)CCC(F)(F)F)ccc2O[C@@H](C)CCCCO[C@@H]1CN(C)Cc1ccc(C(=O)O)cc1,1.4
CC(C)NC(=O)Nc1cccc2c1O[C@H](CN(C)Cc1ccc(Cl)c(Cl)c1)[C@@H](C)CN([C@H](C)CO)C2=O,-1.1
C[C@@H]1CCCCO[C@@H](CN(C)Cc2ccc(C(=O)O)cc2)[C@@H](C)CN([C@@H](C)CO)C(=O)c2cc(NS(=O)(=O)c3ccc(Cl)cc3)ccc2O1,-0.4
Cc1ccc(F)cc1S(=O)(=O)N[C@@H]1CCN(Cc2ccc(C(F)(F)F)cc2)C1,0.2
COc1ccc(CN(C)C[C@@H]2Oc3ccc(NS(=O)(=O)c4ccc(OC)cc4)cc3CC(=O)N([C@@H](C)CO)C[C@@H]2C)cc1,-1.2
COc1ccc(COC[C@]23NC(=O)N[C@H](c4ccccc4O2)[C@H]3CO)cc1,0.8
C[C@H](CO)N1C[C@H](C)[C@H](CN(C)Cc2ccc(C(=O)O)cc2)Oc2ccc(NC(=O)Nc3ccc(C(F)(F)F)cc3)cc2CC1=O,-0.3
C[C@@H]1CCCCO[C@@H](CN(C)Cc2ccncc2)[C@H](C)CN([C@@H](C)CO)C(=O)c2cc(N(C)C)ccc2O1,-1.2
COc1ccc(NC(=O)Nc2ccc3c(c2)C(=O)N([C@H](C)CO)C[C@H](C)[C@@H](CN(C)C(=O)Nc2ccc(C(F)(F)F)cc2)OCCCC[C@H](C)O3)cc1,-0.3
C[C@@H]1CN([C@H](C)CO)C(=O)Cc2cc(NC(=O)CCC(F)(F)F)ccc2O[C@H]1CN(C)Cc1ccc(Cl)c(Cl)c1,0.3
C[C@@H]1CN([C@@H](C)CO)C(=O)c2cc(NS(=O)(=O)c3ccc(F)cc3)ccc2O[C@H]1CN(C)Cc1ccccc1,0.1
SMILES,A1 apoptosis 2
C[C@H](CO)N1C[C@H](C)[C@H](CN(C)Cc2ccc(-c3ccccc3)cc2)Oc2ccc(NC(=O)Cn3cnnn3)cc2CC1=O,0.0
COc1ccc(S(=O)(=O)Nc2ccc3c(c2)C(=O)N([C@@H](C)CO)C[C@@H](C)[C@H](CN(C)S(=O)(=O)c2ccccc2)OCCCC[C@@H](C)O3)cc1,-0.6
Cc1ccc(S(=O)(=O)N(C)C[C@H]2Oc3ccc(NS(C)(=O)=O)cc3C(=O)N([C@H](C)CO)C[C@H]2C)cc1,-0.4
C[C@H](CO)N1C[C@H](C)[C@@H](CN(C)C(=O)Nc2cccc3ccccc23)OCCCC[C@H](C)Oc2ccc(NC(=O)c3ccncc3)cc2C1=O,-1.2
COc1ccc(S(=O)(=O)Nc2ccc3c(c2)C(=O)N([C@H](C)CO)C[C@H](C)[C@@H](CN(C)S(=O)(=O)c2cccs2)OCCCC[C@@H](C)O3)cc1,-0.4
COc1ccc(S(=O)(=O)N(C)C[C@@H]2Oc3ccc(NC(=O)CCC(F)(F)F)cc3C(=O)N([C@@H](C)CO)C[C@H]2C)cc1,0.0
CCO[C@H]1OC(C(=O)N2CCCC2)=C[C@@H](c2ccc(C(F)(F)F)cc2)[C@@H]1CCCO,0.5
Cc1ccc(S(=O)(=O)Nc2ccc3c(c2)CC(=O)N([C@@H](C)CO)C[C@H](C)[C@@H](CN(C)S(C)(=O)=O)O3)cc1,0.1
C[C@H]1CN([C@@H](C)CO)C(=O)c2cccc(NC(=O)c3ccncc3)c2O[C@@H]1CN(C)Cc1ccc(C(F)(F)F)cc1,-0.1
COc1ccc(NC(=O)Nc2cccc3c2O[C@@H](CN(C)C(=O)NC2CCCCC2)[C@H](C)CN([C@@H](C)CO)C3=O)cc1,-0.9
C[C@@H]1CN([C@H](C)CO)C(=O)c2cc(NC(=O)Nc3ccc4c(c3)OCO4)ccc2O[C@@H]1CN(C)Cc1ccc2c(c1)OCO2,-0.6
C[C@@H]1CN([C@@H](C)CO)C(=O)c2cc(N(C)C)ccc2O[C@@H](C)CCCCO[C@H]1CN(C)S(=O)(=O)c1cccs1,-1.2
C[C@H]1CN([C@@H](C)CO)C(=O)Cc2cc(NS(=O)(=O)c3cccs3)ccc2O[C@@H]1CN(C)C,-0.1
CC(C)NC(=O)Nc1cccc2c1O[C@H](CN(C)C)[C@@H](C)CN([C@@H](C)CO)C2=O,0.4
C[C@H]1CCCCO[C@H](CN(C)C)[C@@H](C)CN([C@@H](C)CO)C(=O)c2cc(NC(=O)Nc3ccc(F)cc3)ccc2O1,-0.2
C[C@H]1CN([C@@H](C)CO)C(=O)c2cc(NS(=O)(=O)c3ccc(F)cc3)ccc2O[C@@H]1CN(C)CC1CCCCC1,-0.5
C[C@@H]1CN([C@H](C)CO)C(=O)c2cccc(N(C)C)c2O[C@@H]1CN(C)S(=O)(=O)c1ccccc1,-0.6
C[C@H]1CCCCO[C@@H](CN(C)C(=O)c2ccncc2)[C@@H](C)CN([C@@H](C)CO)C(=O)c2cc(NC(=O)CCC(F)(F)F)ccc2O1,1.1
C[C@H]1CCCCO[C@H](CN(C)C(=O)Nc2ccc(F)cc2)[C@@H](C)CN([C@@H](C)CO)C(=O)c2cc(NC(=O)Nc3cccc4ccccc34)ccc2O1,-0.5
COc1ccccc1NC(=O)N(C)C[C@@H]1OCc2cnnn2CCCC(=O)N([C@@H](C)CO)C[C@@H]1C,1.7
C[C@@H]1CCCCO[C@H](CN(C)C(=O)Nc2ccccc2)[C@H](C)CN([C@@H](C)CO)C(=O)c2cc(NC(=O)Nc3ccc(F)cc3)ccc2O1,0.0
C[C@@H]1CCCCO[C@@H](CN(C)C(=O)Nc2cccc3ccccc23)[C@H](C)CN([C@@H](C)CO)C(=O)c2cc(NC(=O)CCCN(C)C)ccc2O1,0.2
Cc1ccc(S(=O)(=O)N(C)C[C@H]2Oc3c(NC(=O)c4nc5ccccc5s4)cccc3C(=O)N([C@@H](C)CO)C[C@H]2C)cc1,0.3
C[C@H](CO)N1C[C@H](C)[C@@H](CN(C)S(=O)(=O)c2ccc(F)cc2)Oc2c(NC(=O)Nc3cccc4ccccc34)cccc2C1=O,-0.4
C[C@H]1CCCCO[C@H](CN(C)C(=O)CCC(F)(F)F)[C@@H](C)CN([C@@H](C)CO)C(=O)c2cc(NC(=O)Cc3ccccc3)ccc2O1,0.4

# Reformatted as tab-separated lines: 10 of the compounds above.
Structure	A1 apoptosis 2
CC(C)NC(=O)Nc1cccc2c1O[C@H](CN(C)C)[C@@H](C)CN([C@@H](C)CO)C2=O	0.4
C[C@H]1CCCCO[C@H](CN(C)C)[C@@H](C)CN([C@@H](C)CO)C(=O)c2cc(NC(=O)Nc3ccc(F)cc3)ccc2O1	-0.2
C[C@H]1CN([C@@H](C)CO)C(=O)c2cc(NS(=O)(=O)c3ccc(F)cc3)ccc2O[C@@H]1CN(C)CC1CCCCC1	-0.5
C[C@@H]1CN([C@H](C)CO)C(=O)c2cccc(N(C)C)c2O[C@@H]1CN(C)S(=O)(=O)c1ccccc1	-0.6
C[C@H]1CCCCO[C@@H](CN(C)C(=O)c2ccncc2)[C@@H](C)CN([C@@H](C)CO)C(=O)c2cc(NC(=O)CCC(F)(F)F)ccc2O1	1.1
C[C@H]1CCCCO[C@H](CN(C)C(=O)Nc2ccc(F)cc2)[C@@H](C)CN([C@@H](C)CO)C(=O)c2cc(NC(=O)Nc3cccc4ccccc34)ccc2O1	-0.5
COc1ccccc1NC(=O)N(C)C[C@@H]1OCc2cnnn2CCCC(=O)N([C@@H](C)CO)C[C@@H]1C	1.7
C[C@@H]1CCCCO[C@H](CN(C)C(=O)Nc2ccccc2)[C@H](C)CN([C@@H](C)CO)C(=O)c2cc(NC(=O)Nc3ccc(F)cc3)ccc2O1	0.0
C[C@@H]1CCCCO[C@@H](CN(C)C(=O)Nc2cccc3ccccc23)[C@H](C)CN([C@@H](C)CO)C(=O)c2cc(NC(=O)CCCN(C)C)ccc2O1	0.2
Cc1ccc(S(=O)(=O)N(C)C[C@H]2Oc3c(NC(=O)c4nc5ccccc5s4)cccc3C(=O)N([C@@H](C)CO)C[C@H]2C)cc1	0.3

# New compounds follow
SMILES,A1 apoptosis 2
Cc1noc(C)c1S(=O)(=O)Nc1ccc2c(c1)C(=O)N([C@@H](C)CO)C[C@@H](C)[C@@H](CN(C)C(=O)NC1CCCCC1)OCCCC[C@@H](C)O2,-2.2
Cc1noc(C)c1NC(=O)N(C)C[C@H]1OCc2cn(nn2)CCCC(=O)N([C@H](C)CO)C[C@@H]1C,0.5
C[C@@H]1CN([C@H](C)CO)C(=O)CCCn2cc(nn2)CO[C@@H]1CN(C)Cc1ccc(C(F)(F)F)cc1,0.1
Cc1cccc(CN(C)C[C@@H]2OCc3cn(nn3)CCCC(=O)N([C@@H](C)CO)C[C@@H]2C)c1,0.0
COc1ccc(NC(=O)Nc2ccc3c(c2)CC(=O)N([C@@H](C)CO)C[C@H](C)[C@@H](CN(C)Cc2ccc(Oc4ccccc4)cc2)O3)cc1,0.2
Cc1noc(C)c1S(=O)(=O)N(C)C[C@@H]1Oc2c(NS(=O)(=O)c3cccs3)cccc2C(=O)N([C@H](C)CO)C[C@@H]1C,-1.4
Cc1ccc(S(=O)(=O)N(C)C[C@H]2OCCCC[C@H](C)Oc3ccc(NC(=O)Nc4cccc5ccccc45)cc3C(=O)N([C@@H](C)CO)C[C@@H]2C)cc1,-0.3
CC(C)NC(=O)N(C)C[C@@H]1OCCCC[C@@H](C)Oc2ccc(NC(=O)c3ccncc3)cc2C(=O)N([C@@H](C)CO)C[C@H]1C,0.2
COc1ccc(CN(C)C[C@@H]2Oc3ccc(NC(=O)Nc4ccc5c(c4)OCO5)cc3C(=O)N([C@@H](C)CO)C[C@H]2C)cc1,0.7
C[C@H]1CN([C@@H](C)CO)C(=O)c2cccc(NC(=O)Nc3cccc4ccccc34)c2O[C@H]1CN(C)CC1CC1,0.9
C[C@H]1CN([C@@H](C)CO)C(=O)c2cccc(NC(=O)c3ccc(-c4nccs4)cc3)c2O[C@@H]1CN(C)C(=O)NC1CCCCC1,-0.3
Cc1noc(C)c1NC(=O)N(C)C[C@H]1OCCCC[C@H](C)Oc2ccc(NC(=O)C3CCCCC3)cc2C(=O)N([C@H](C)CO)C[C@@H]1C,0.1
COc1ccc(S(=O)(=O)N(C)C[C@@H]2Oc3ccc(NC(=O)Nc4c(C)noc4C)cc3CC(=O)N([C@@H](C)CO)C[C@H]2C)cc1,-0.1
Cc1ccc(S(=O)(=O)N(C)C[C@H]2Oc3c(NC(=O)C4CC4)cccc3C(=O)N([C@@H](C)CO)C[C@H]2C)cc1,0.5
C[C@@H]1CN([C@H](C)CO)C(=O)CCCn2cc(nn2)CO[C@H]1CN(C)S(=O)(=O)c1cccs1,-0.7
COC(=O)CCCCCCC(=O)N/N=C/[C@H](O)[C@@H](O)[C@H](O[C@@H]1O[C@H](CO)[C@H](O)[C@H](O)[C@H]1O)[C@H](O)CO,1.0
COc1ccc(S(=O)(=O)Nc2ccc3c(c2)C(=O)N([C@H](C)CO)C[C@H](C)[C@H](CN(C)C(=O)Nc2ccc(C(F)(F)F)cc2)O3)cc1,0.5
C[C@@H]1CN([C@H](C)CO)C(=O)c2cc(NS(=O)(=O)c3cccs3)ccc2O[C@@H]1CN(C)Cc1ccccc1,0.5
C[C@@H]1CN([C@@H](C)CO)C(=O)c2cc(NS(=O)(=O)c3ccccc3)ccc2O[C@@H]1CN(C)C,0.1
COc1ccc([Si](C)(C)[C@@H]2[C@@H](CCn3cc([C@H](O)c4ccccc4)nn3)O[C@]3(C(=O)N(Cc4ccc(N5CCC5=O)cc4)c4ccccc43)[C@H]2C)cc1,-0.7
Cc1ccc(F)cc1S(=O)(=O)N[C@@H]1CCN(Cc2ccc(OC(C)C)cc2)C1,0.0
COc1ccc(CN(C)C[C@H]2OCCCC[C@H](C)Oc3ccc(N(C)C)cc3C(=O)N([C@H](C)CO)C[C@H]2C)cc1,0.5
